MT1-MMP act inh = inhibitors of human MT1-MMP activation; HT1080 RFP-PRO-GFP cells, GFP/RFP ratio fluorescence, overnight; percent of plate control window, DMSO zero; AID 651647; P50281; actives 0.061% (n = 360,000); GFP/RFP ratio change, % at 20 µM;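 active means GFP/RFP ratio change of at least 30% with cell ATP level not reduced by more than half and red fluorescence within 50% of control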; further: strong numbers were not always called active
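Assay system – RFP-PRO-GFP reporter HT1080 cells · Compound dosing – single dose of 20 µM compound, 1% DMSO final · Incubation – overnight compound exposure at 37 °C · Measure – GFP/RFP fluorescence ratio · Benchmarks – DMSO wells and RFP-L50D-GFP cells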
Env fusion inh = HIV envelope-mediated fusion inhibition; HeLa-JRFL Env/CEM21 cell fusion, luciferase; inhibition, % at 12.3 µM; actives 1.1% (n = 360,000); AID 651610;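 active means mean replicate inhibition score of at least 50 and every replicate individually at or above 50; inconclusive means only one of the two criteria met; inactive means mean below 50 and not all replicates reaching 50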;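 further: 0% = plate neutral controls and 100% = maraviroc near 300 nM; one replicate is shown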
CSC inhib = cancer stem cell inhibition. cancer stem cell-like cells viability, luminescence. inhibition, % at 7.5 µM. actives 1.1% (n = 300,000). AID 2717;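 active means mean at 75% or more and at least half the replicates too; inconclusive means mean and replicates disagree; tested in HMLE shEcad cells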;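 further: 0% = median of negative and 100% = median of positive control wells; the first replicate is given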
PABP polyA inh = blocks human PABP binding to poly(A) RNA; P11940; fluorescence polarization; inhibition, % at 35 µM; actives 1% (n = 290,000); AID 2014;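 active means 50% or more with normal probe brightness, or confirmed in later tests; inconclusive means above 50% with abnormal brightness, or retests that disagree; inactive means below 50% or failed in later tests; about a fifth of its hits are not listed in these tables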;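 further: calls also rest on retests at 20 µM and on dose response follow-up; controls were probe without protein and protein plus probe with vehicle; some compounds called inactive have numbers as strong as hits; many hits fall short of the cut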
Yeast UUG start = yeast start codon fidelity modulation | S. cerevisiae UUG-firefly luciferase reporter, luminescence/redox ratio | activity score, % at 18.7 µM | actives 0.13% (n = 350,000) | AID 602363;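 active means replicate mean at a twofold rise or more, about +100% in these data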;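 further: firefly luciferase made from a UUG start codon reports start codon fidelity; reporter light over untreated wells divided by growth signal over untreated wells; some hits fall short of that in this replicate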
eIF4H inh = inhibitors of RNA binding by human eIF4H; Q15056; eIF4H fluorescence polarization binding assay; inhibition, % at 35 µM; actives 0.94% (n = 290,000); AID 2012;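 active means 50% or more with normal probe brightness, or confirmed in later tests; inconclusive means above 50% with abnormal brightness, or retests that disagree; inactive means below 50% or failed in later tests; about a fifth of its hits are not listed in these tables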;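 further: calls also rest on retests at 20 µM and on dose response follow-up; 0% = protein and probe with vehicle and 100% = probe without protein; strong numbers were not always called active; many hits fall short of the cut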
Rce1 inh = inhibitors of yeast Ras-converting enzyme. AID 2563. Q03530. calls only. yeast membranes, quenched prenylated peptide cleavage fluorescence. actives 0.27% (n = 290,000);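 active means fall in fluorescence gain of 50% or more versus controls, with final raw signal at or below 3038400; inconclusive means same 50% fall but final raw signal above 3038400; inactive means fall in fluorescence gain under 50%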;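 further: plate controls were neutral control wells for no effect and wells lacking membranes for full effect; tested at 10 µM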
Target sequence (Q03530 whole entry, looked up): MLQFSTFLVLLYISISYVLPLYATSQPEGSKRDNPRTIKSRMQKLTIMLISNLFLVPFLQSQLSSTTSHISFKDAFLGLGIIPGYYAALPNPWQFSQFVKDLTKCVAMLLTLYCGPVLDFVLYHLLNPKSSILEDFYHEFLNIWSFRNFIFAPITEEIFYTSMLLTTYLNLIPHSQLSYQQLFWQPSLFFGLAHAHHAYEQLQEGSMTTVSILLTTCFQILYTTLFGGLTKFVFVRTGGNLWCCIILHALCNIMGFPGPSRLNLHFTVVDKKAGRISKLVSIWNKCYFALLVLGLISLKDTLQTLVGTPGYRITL
eIF4H inh retest = further read-out of eIF4H inh, marked with its call; inhibition, %; compound at 20 µM; confirmation average;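 mean of two retest wells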
PABP polyA inh retest = recorded beside PABP polyA inh, whose call it bears; inhibition, %; compound at 20 µM; confirmation repeats;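 mean of two retest wells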
MT1-MMP act inh RFP = further read-out of MT1-MMP act inh, marked with its call; RFP signal change, %; measured here: RFP expression control read;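 0 = vehicle wells; hits needed this value within 50% of zero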
Numbers without * were called inactive; i = inactive; ? = inconclusive; / = no result given; & = joins results of further samples.

SMILES	MT1-MMP act inh	MT1-MMP act inh RFP	Env fusion inh	CSC inhib	PABP polyA inh	Yeast UUG start	eIF4H inh	Rce1 inh	others
CC1(C)NC(=O)N(CC(O)COC2CCCCC2)C1=O (stereo unspecified)	-2	2	-5	-4	3	-13	9	i
Clc1ccc2c(NCc3ccccc3)ccnc2c1	-1	-13	24	-14	-5	-10	-5	i
Cc1cccc2nc(CNc3ccc(F)cc3)cn12	-7	2	/	2	?	-21	?	i
CCOC(=O)c1nn(C)c(=S)n(C)c1=O	1	6	1	/	/	-21	/	/
Fc1ccccc1OCCSc1ncnc2nc[nH]c12	2	4	-14	10	2	-3	-12	i
COC(=O)c1ccccc1S(=O)(=O)NNC(=O)C1COc2ccccc2O1 (stereo unspecified)	6	-3	-23	/	/	-10	/	/
CC(=O)/C(N=Nc1ccc2c(c1)OCO2)=C(\C)O	6	6	-126	/	6	/	11	i
Cc1c(Cl)cc(-n2cnnn2)cc1[N+](=O)[O-]	1	2	7	-3	44	/	6	/
CCOc1cccc2sc(N(CCCN(C)C)C(=O)c3ccc(S(=O)(=O)N(C)Cc4ccccc4)cc3)nc12	1	-3	-44	12	-6	3	-16	i
Cc1ccc(S(=O)(=O)/N=C(\CSC(N)=O)Nc2ccccc2)cc1	8	6	-46	17	8	-15	-5	i
Cc1ccc(C)c(NC(=S)N2CCN(c3cccc(C(F)(F)F)c3)CC2)c1	1	0	5	1	4	-13	-5	i
COc1ccc(-n2cc(CNC3CCN(C)CC3)c(-c3cccc(F)c3)n2)cc1	5	-2	14	14	5	/	-10	i

The last four entries of the part before lead into the next:
SMILES	MT1-MMP act inh	MT1-MMP act inh RFP	Env fusion inh	CSC inhib	PABP polyA inh	Yeast UUG start	eIF4H inh	Rce1 inh	others
CCOc1cccc2sc(N(CCCN(C)C)C(=O)c3ccc(S(=O)(=O)N(C)Cc4ccccc4)cc3)nc12	1	-3	-44	12	-6	3	-16	i
Cc1ccc(S(=O)(=O)/N=C(\CSC(N)=O)Nc2ccccc2)cc1	8	6	-46	17	8	-15	-5	i
Cc1ccc(C)c(NC(=S)N2CCN(c3cccc(C(F)(F)F)c3)CC2)c1	1	0	5	1	4	-13	-5	i
COc1ccc(-n2cc(CNC3CCN(C)CC3)c(-c3cccc(F)c3)n2)cc1	5	-2	14	14	5	/	-10	i
CC(=O)N(C)c1ccc(NC(=S)Nc2cccc3ccccc23)cc1	0	3	-5	15	60	/	-2	i	eIF4H inh retest=-4;PABP polyA inh retest=7
O=C1CCCN1c1ccc(S(=O)(=O)N2CCCCC2)cc1	4	1	-6	-6	4	18	11	i
COC(=O)COc1ccc(S(=O)(=O)Nc2ccc3c(c2)OCCO3)cc1Cl	2	0	/	12	0	-11	4	i
Cc1sc2ncn(CC(=O)N(CC(=O)NC3CCCC3)Cc3cccs3)c(=O)c2c1C	0	-4	/	-8	-2	5	-1	i
O=C(Nc1ccn([C@H]2CC[C@@H](CO)O2)c(=O)n1)c1ccccc1	0	-2	9	-11	-9	/	-16	i
C=CCOC(=O)C1=C(C)NC(C)=C(C(=O)OCC=C)C1c1cn(-c2ccccc2)nc1-c1ccco1	-11	-11	36	9	2	/	11	i
Cc1csc2nc(O)c(C(=O)NCCCc3ccccc3)c(=O)n12	1	2	/	-3	/	/	/	i
CCOC(=O)c1cc(C(=O)Nc2ccccc2F)nn1C	-4	1	/	0	0	-12	4	i
CC(C(=O)N1CCCc2ccccc21)N1C(=O)c2ccccc2C1=O (stereo unspecified)	2	5	/	-15	-15	-16	-8	i
O=C(COC(=O)c1cc(=O)[nH]c2ccc(Br)cc12)c1ccccc1	3	3	-33	-7	10	/	5	i
Cc1c(Cl)ccc2sc(NC(=O)CN3C(=O)c4ccccc4C3=O)nc12	2	5	/	/	-5	-10	1	i
O=C(NCCCN1CCCC1=O)c1cccs1	0	5	-25	/	2	-13	-4	i
COC(=O)c1ccc(OC(=O)c2ccc(OC)cc2)c(OC)c1	-12	-4	4	-6	6.3*	/	53*	i	eIF4H inh retest=78*;PABP polyA inh retest=60*
Cc1ccc(NC(=O)CSc2n[nH]c(-c3ccco3)n2)cc1	3	4	1	-1	-3	-13	-6	i
O=[N+]([O-])c1ccc(N2CCN(CCO)CC2)cc1Sc1ccccn1	-3	-9	13	30	5	/	-5	i
COc1ccc(CCn2c(C)ccc2C)cc1OC	/	/	/	-3	2	/	-2	i
O=C(Nc1cc([N+](=O)[O-])ccc1F)c1ccc2ccccc2c1	-1	-2	-21	7	57	-10	5	i	eIF4H inh retest=25;PABP polyA inh retest=10
CC1CCCC(NC(=O)COC(=O)[C@@H](NC(=O)c2ccc(F)cc2)C(C)C)C1C (stereo partly specified)	-4	-6	-11	-11	/	-10	/	/
Cc1ccnc(NC(=O)CCC(=O)N(CC(=O)NCc2ccc(F)cc2)c2ccc(F)cc2)c1	0	-1	15	-9	-5	-19	-6	i
CCOC(=O)Cc1csc(NC(NC(=O)OCC)(C(=O)OCC)C(F)(F)F)n1 (stereo unspecified)	2	-1	-38	5	/	2	/	i
O=C(Cc1ccccc1)Nc1c(Cl)ccc2nsnc12	-1	-2	7	-20	0	-13	-6	i
CN(C(=O)C1CCCN1S(=O)(=O)c1ccc(Cl)cc1)c1ccccc1 (stereo unspecified)	0	2	6	/	/	-6	/	/
CC1(C)CC(=O)C=C(NNC(=O)c2ccc(N)cc2)C1	2	3	11	-3	-12	/	0	i
CCCOc1ccc(N2C(=O)C3ON(c4ccccc4)C(c4ccc(O)c(OC)c4)C3C2=O)cc1 (stereo unspecified)	-1	3	/	52	-4	-31	-4	i

The last four entries of the section above lead into the next.
SMILES	MT1-MMP act inh	MT1-MMP act inh RFP	Env fusion inh	CSC inhib	PABP polyA inh	Yeast UUG start	eIF4H inh	Rce1 inh	others
O=C(Cc1ccccc1)Nc1c(Cl)ccc2nsnc12	-1	-2	7	-20	0	-13	-6	i
CN(C(=O)C1CCCN1S(=O)(=O)c1ccc(Cl)cc1)c1ccccc1 (stereo unspecified)	0	2	6	/	/	-6	/	/
CC1(C)CC(=O)C=C(NNC(=O)c2ccc(N)cc2)C1	2	3	11	-3	-12	/	0	i
CCCOc1ccc(N2C(=O)C3ON(c4ccccc4)C(c4ccc(O)c(OC)c4)C3C2=O)cc1 (stereo unspecified)	-1	3	/	52	-4	-31	-4	i
COC(=O)c1ccc(C(=O)Nc2nc3cc(N)c(C)cc3s2)cc1	-1	3	15	-4	-1	-19	-4	i
Cc1sc(NC(=O)/C=C/C(=O)O)c(C(N)=O)c1-c1ccc(C(C)(C)C)cc1	-4	-9	0	21	-2	/	-7	i
COc1ccc(Cl)cc1NC(=O)CN(C)CC(=O)N(CC(C)C)c1c(N)n(CC(C)C)c(=O)[nH]c1=O	8	1	-6	-5	/	-4	/	/
C[C@@H]1CN([C@@H](C)CO)C(=O)CCCn2nncc2CO[C@H]1CN(C)Cc1ccncc1	-2	3	-7	/	/	-14&-5	/	/
Cc1ccc(CNc2nc3cc(-c4ccccc4C)sc3c(=O)n2C)c(C)c1	-6	-19	22	/	/	-15	/	/
CC(C)[C@H](CN1CCC[C@H]1CN1C(N)=NC[C@H]1C(C)C)N1C[C@@H](Cc2ccccc2)N(CCCC2CCCC2)C1=N	0	0	/	5	/	3	/	/
Cc1cc(OCC(=O)OCC(=O)c2c(N)n(C)c(=O)n(C)c2=O)ccc1Cl	8	4	-6	-12	/	-11	/	/
O=C(COC(=O)c1cccc(-n2cnnn2)c1)Nc1c(Cl)cccc1C(F)(F)F	2	3	-27	-4	3	-1	-4	i
Nc1nn(-c2cccc(F)n2)cc1-c1ccc(Cl)cc1	-3	0	-324	/	8	-42	-10	i
COc1cc(NC(=O)C2=CC(c3cccs3)=NS(=O)(=O)N2C)cc(OC)c1OC	4	3	4	-8	-3	17	-8	i
Cc1cc(NC(=O)CCC(=O)N(Cc2ccco2)C2(C(=O)NC3CCCC3)CCCCC2)no1	-5	-2	29	-16	0	/	-9	i
CC1CCc2c(sc(NC(=O)CSc3nnc(-c4ccccc4)o3)c2C#N)C1 (stereo unspecified)	0	-8	-14	48	-14	-8	4	i
CCCCn1cc(C(C)(C)C)c(C#N)c1NC(C)=O	4	3	6	-7	19	-3	3	i
O=C(c1cc2cc(Br)ccc2o1)N1CCOCC1	2	0	-21	-1	-4	/	0	i
O=C1CC(c2nc3ccccc3[nH]2)CN1c1ccccc1 (stereo unspecified)	4	7	i	-8	2	-14	-1	i
Cc1ccc(C(=O)CN(C(=O)c2ccc(Cl)cc2)N2C(=O)CCC2=O)cc1	2	4	-7	-4	-3	-6	-2	i
COC(=O)c1[nH]c(C)c(/C(O)=C2\C(=O)C(=O)N(CCN(C)C)C2c2ccccc2OC)c1C (stereo unspecified)	-1	3	/	15	2	-12	-19	i
CC(=O)c1nccs1	1	4	/	2	/	5	/	/
COC(=O)C(C)N1C(=O)S/C(=C/c2cc(C)n(C(C)C)c2C)C1=O (stereo unspecified)	0	-7	-304	/	0	5	7	i
COc1ccc(C(=O)OCC(=O)N2CCCCC2)cc1[N+](=O)[O-]	1	2	11	-10	5	/	2	/
COC(=O)Cn1cnc2c(Cl)nc(F)nc21	5	6	89*	/	/	-4	/	/
CCOc1ccccc1C(C(=O)NCCOC)N(CCOC)C(=O)Cn1nnc2ccccc21 (stereo unspecified)	-6	0	8	13	6	/	4	i
COc1ccc(Cl)cc1C(=O)NCCN1CCOCC1	-1	4	16	-1	-10	-14	1	/
C/C(=N/N=C(/N)SCc1ccccc1)C(C)(C)C	0	0	-13	-1	3	/	-7	i

Brought forward from above: two compounds, followed by the next part.
SMILES	MT1-MMP act inh	MT1-MMP act inh RFP	Env fusion inh	CSC inhib	PABP polyA inh	Yeast UUG start	eIF4H inh	Rce1 inh	others
COc1ccc(Cl)cc1C(=O)NCCN1CCOCC1	-1	4	16	-1	-10	-14	1	/
C/C(=N/N=C(/N)SCc1ccccc1)C(C)(C)C	0	0	-13	-1	3	/	-7	i
O=S(=O)(c1ccc(NCCOCCO)nc1)N1CCCCC1	5	0	0	0	/	-19	/	/
CNC(=O)C(=O)N/N=C/c1ccccn1	1	6	8	-9	4	-3	9	i
Cc1ccc(/C=C/C(=O)NC(C)c2ccccc2)cc1 (stereo unspecified)	-1	0	-3	1	7	/	-11	i
COc1cc2nc(C3CC3)n(NC(=O)c3ccc(F)cc3)c(=O)c2cc1OC	-2	2	-13	-6	4	-21	8	i
CCCCCCN1C[C@@H](O)[C@H](n2cc(COC(=O)c3ccccc3)nn2)C[C@@H]1c1ccccc1	7	3	9	/	/	-9	/	/
COc1ccc(CCN(C)C(=O)c2cc(S(=O)(=O)NCc3ccccc3)ccc2C)cc1OC	-5	-16	/	-10	/	-3	/	i
COc1ccccc1NC(=O)c1ccc2nc(N3C(=O)CCC3=O)sc2c1	0	0	-115	-9	-4	25	-8	i
CC1CCN(C(=O)CCNS(=O)(=O)c2ccc3c(c2)oc(=O)n3C)CC1	-3	0	-9	-7	-2	-29	0	i
CCOc1cc(S(=O)(=O)Nc2ccc(Cl)cn2)ccc1F	6	8	/	-6	-6	5	-5	i
CCN(c1ccccc1)S(=O)(=O)c1ccc(C(=O)N2CCOCC2)cc1	-2	-3	11	-21	/	2	/	/
